Bioassay records: PubChem BioAssay, National Center for Advancing Translational Sciences (NCATS)
SARS PLpro yeast: inhibitors of SARS-CoV papain-like protease in yeast; S. cerevisiae expressing SARS-CoV PLpro, growth rescue; control for the full effect not named in the record; 330,000 tested, 0.19% active; Potency, µM (titrated, usually from 32.9 µM), for inactives: at the top dose activity, positive = growth rescue; also: 0% is about no effect; nearly all actives have a fitted effect of over 55% in size; growth read by luminescence after 48 h
Cruzain Triton: blocks cruzain activity in presence of Triton detergent | P25779 | purified cruzain, Z-FR-AMC fluorescence, 0.01% Triton | Potency, µM, without a hit: max response, negative = inhibition, most hits filed as inhibitors | 200,000 tested, 0.43% active | AID 1478; active = well fitted curve in the direction sought with a large enough effect; inconclusive = small, poorly fitted or top-dose-only effect, or another doubt; inactive = no such curve, though single readings can be large; an effect the other way counts as inactive or inconclusive;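 also: plate controls were neutral wells for no effect and buffer without enzyme for full effect; nearly all actives have a fitted effect of over 40% in size; top concentration of the series not given in the record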
Target sequence (P25779 123-467 limits assumed): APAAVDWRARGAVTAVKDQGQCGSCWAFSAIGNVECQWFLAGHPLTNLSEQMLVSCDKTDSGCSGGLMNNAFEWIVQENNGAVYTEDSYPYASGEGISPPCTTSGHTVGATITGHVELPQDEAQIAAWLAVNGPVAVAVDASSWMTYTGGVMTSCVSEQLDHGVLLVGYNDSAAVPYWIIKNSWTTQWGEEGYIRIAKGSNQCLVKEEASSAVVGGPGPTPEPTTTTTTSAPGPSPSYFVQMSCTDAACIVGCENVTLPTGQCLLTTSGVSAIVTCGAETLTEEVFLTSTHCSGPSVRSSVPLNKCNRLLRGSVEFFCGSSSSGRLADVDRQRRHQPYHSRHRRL
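In this qHTS format, compounds are incubated with 1.5 nM cruzain for 15 min at room temperature before 2 uM Z-FR-AMC is added. Release of AMC is followed at 360/450 nm, and progress is taken as the 60 s fluorescence difference.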
Lassa entry inh: inhibitors of Lassa virus binding or cell entry | Potency, µM (titrated, usually from 37.9 µM), for the others: at the highest dose activity change, negative = inhibition, hits mostly inhibitors | Lassa virus pseudotype entry inhibition, cell reporter; control for the full effect not named in the record | 300,000 tested, 1.2% active; active means well fitted inhibition curve with a large enough effect; inconclusive means small, poorly fitted or top-dose-only effect, or effect the other way; inactive means flat fitted curve, though single readings scatter; tested in HEK293 cells; also: % is scaled to controls: 0 for no effect and ±100 for the full control effect; nearly all actives have a fitted effect of over 50% in size; luciferase read-out
StopGo reporter: lowers the luciferase signal of an FMDV 2A StopGo reporter | 410,000 tested, 1.2% active | Potency, µM (highest dose often 57.9 µM), for inactives: at the top dose signal change, negative = less light | human cells with a luciferase reporter of 2A StopGo recoding; control for the full effect not named in the record; active = well fitted falling curve with a large enough effect; inconclusive = small, poorly fitted or top-dose-only effect; inactive = no such curve, though single readings can be large or run the other way; tested in HEK293T cells; also: % is scaled to controls: 0 for no effect and ±100 for the full control effect; nearly all actives have a fitted effect of over 45% in size; luciferase light after 4 h
Cruzain noTriton: inhibitors of Trypanosoma cruzi cruzain without detergent; 200,000 tested, 2.3% active; P25779; purified cruzain, Z-FR-AMC fluorescence, no detergent; Potency, µM, without a hit: max response, negative = inhibition, hits mostly inhibitors; active = well fitted curve in the direction sought with a large enough effect; inconclusive = small, poorly fitted or top-dose-only effect, or another doubt; inactive = no such curve, though single readings can be large; an effect the other way counts as inactive or inconclusive;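 also: plate controls were enzyme without inhibitor for no effect and buffer without enzyme for full effect; nearly all actives have a fitted effect of over 40% in size; top concentration of the series not given in the record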
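Purified cruzain at 1.5 nM, pre-incubated 15 min with compound at room temperature in 100 mM sodium acetate pH 5.5, 5 mM DTT, 0.00005% Triton X-100. Reaction started with 2 uM Z-FR-AMC; AMC fluorescence increase over 60 s gives rate.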
NS1 function inh: influenza NS1 inhibition; Potency, µM (series often up to 46.1 µM), inactives show top-dose activity, positive = more growth; S. cerevisiae slowed by influenza A NS1, growth recovery by OD600; 270,000 tested, 0.4% active; also: actives are rising curves; nearly all actives have a fitted effect of over 50% in size
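OD600 was taken as the measure of yeast growth restored by compound in an NS1-expressing S. cerevisiae strain. Cells had been washed out of glucose medium and diluted 1:100 into galactose -URA medium, pH 6.0.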
MARV entry inh: Marburg virus entry inhibition; Marburg virus pseudotyped entry inhibition, cell reporter; control for the full effect not named in the record; about a third of the inactives were read at about 46 µM; Potency, µM (top dose mostly 37.8 µM), for the others: at the highest dose activity change, negative = inhibition, most hits filed as inhibitors; 300,000 tested, 1.8% active; active = well fitted inhibition curve with a large enough effect; inconclusive = small, poorly fitted or top-dose-only effect, or effect the other way; inactive = flat fitted curve, though single readings scatter; tested in HEK293 cells; about a fifth of its hits are not listed in these tables; also: % is scaled to controls: 0 for no effect and ±100 for the full control effect; luciferase read-out
RE007 growth inh: less growth of the S. pombe RE007 Vpr strain; S. pombe RE007 Vpr strain, BacTiter-Glo ATP luminescence, 24 h; control for the full effect not named in the record; Potency, µM (top dose mostly 92.2 µM), for the others: at the highest dose activity change, negative = less growth; 360,000 tested, 0.21% active; active = well fitted falling curve with a large enough effect; inconclusive = small, poorly fitted or top-dose-only effect; inactive = no such curve, though single readings can be large or run the other way;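 also: % is scaled to controls: 0 for no effect and ±100 for the full control effect; nearly all actives have a fitted effect of over 50% in size; the assay follows cell death caused by Vpr and the record does not say whether a fall means rescue or toxicity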
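Fission yeast RE007 carrying one integrated HIV-1 vpr copy, seeded at OD 0.01 in PMG+AL medium with 23 nL pinned compound. Grown 24 h at 30 degrees; viability read by BacTiter-Glo luminescence after 5 min.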
Starred values were filed as active, the others as inactive; ? = inconclusive; · = no result given; & = joins results of further samples; [ ] = dose if it differs, or a comment. Unless noted, calls follow the shape of the dose curve; as a rule, active means well fitted rising curve with a large enough effect; inconclusive means small, poorly fitted or top-dose-only effect; inactive means no such curve, though single readings can be large or run the other way. Potency is read from the fitted curve at half-maximal effect.

structure	MARV entry inh	Cruzain Triton	NS1 function inh	Lassa entry inh	RE007 growth inh	StopGo reporter	SARS PLpro yeast	Cruzain noTriton
CCc1cccc(C)c1NC(=O)CCOc1ccccc1	-46%	·	-1%	3%	-3%	-4%	7%	·
Cc1ccc2cc(NC(=O)c3ccccc3)ccc2n1	·	·	-47%	·	-4%	33%[activator]	-4%	·
CCCc1n[nH]c2c1/C(=N\O)CCC2	26%	0.6%	-8%	0%	9%	8%	2%	-6%
CCCS(=O)(=O)N1CCN(Cc2ccc(OCc3ccccc3)c(OC)c2)CC1	-29%	·	-16%	-8%	12%	·	·	·
S=c1nc(-c2ccc(Cl)cc2)[nH][nH]1	10%[46.1 µM]	·	-54%	?	21%	-15%	3%	·
O=C(CCN1C(=O)C2CC=C(Cl)CC2C1=O)NCc1ccccc1 (stereo not drawn)	12%	-0.3%	2%[9.22 µM]	-11%	-4%	-10%	33%	2%
Cc1c(C(=O)O)oc2c(F)cccc12	1%[46.1 µM]	·	·	11%	32%	-10%	4%	·
Cc1ccc(-c2cc(C(=O)NC3CCN(Cc4ccccc4)CC3)c3ccccc3n2)cc1	?	·	·	11%[46.1 µM]	2%	-24%	·	·
COc1ccc(CN2C=C3C(=O)C(C)(OC(=O)C4CCCC4)C(=O)C=C3C=C2c2ccsc2)cc1 (stereo not drawn)	?	·	7%	·	7%	3%	-5%	·
O=S(=O)(c1ccc(F)cc1)N1CCN(CC(O)COCc2ccccc2)CC1 (stereo not drawn)	3%	·	·	?	24%	?	·	·
CC(C)c1ccc(NC(=O)COC(=O)/C=C/c2cccc(Br)c2)cc1	14%	-8.0%	3%	-20%	-23%	8%	-2%	?
O=C(COc1ncnc2sccc12)N1CCN(C(=O)c2ccco2)CC1	23%	·	·	11%	4%	11%	-2%	·
COc1cc2ncnc(NCc3ccccc3Cl)c2cc1OC	·	·	-1%	·	-15%	-28%	0%	·
CCOC(=O)c1cc(-c2ccccc2)n(CCC(=O)NCCc2ccccc2)c1C	·	-0.1%	·	11µM*	·	-10%	·	-2%
O=C(COc1ccc(F)cc1)Nc1ccc2nc(SCc3ccccc3)sc2c1	?	-0.2%	·	3%[46.1 µM]	·	-12%	·	-4%
CCOc1cc(CNCCO)cc(Br)c1OCc1ccc(Cl)cc1Cl	?	5.1%	-161%	-24%	5%	?	-6%	7%
Cc1ccc(C(NC(=O)N2CCCC2)C(Cl)Cl)cc1F (stereo not drawn)	-22%[46.1 µM]	·	·	-16%	8%	-20%	-5%	·
Cc1ccc(C)c(NC(=O)c2ccc(S(=O)(=O)N(C)CC3CCCO3)cc2)c1 (stereo not drawn)	-1%	·	·	7%	-10%	-17%	·	·
CCc1ccccc1NC(=O)c1cc(S(=O)(=O)N2CCC(C)CC2)cn1C	·	-5.3%	·	0%[46.1 µM]	·	-19%	·	20%
N#C/C(=C\c1ccc(O)c(O)c1)C(=O)c1ccc(O)c(O)c1	?	-4.9%	3%	?	0%[18.4 µM]	-18%	·	-2%
Cc1cc(C)nc(N2CCCC(C(=O)Nc3nnc(C(C)(C)C)s3)C2)n1 (stereo not drawn)	3%	·	3%	2%	0%	-22%	0%	·
Cc1ccc2nc(SCC(=O)Nc3cc(C)on3)[nH]c2c1	12%	-1.0%	-3%	-9%	-14%	-24%	11%	-8%
COc1ccc(C(=O)NC(=S)NC2CCCCC2)cc1	?	·	-11%	-16%[46.1 µM]	?	24%	-2%	·
Cc1cc2c(NCC(C)O)ncnc2s1 (stereo not drawn)	7%	·	·	6%	0%	-2%	·	·
COC(=O)c1cn[nH]c1NC(=S)Nc1ccccc1C	18%	4.5%	-8%	?	7%	0%	-2%	-1%
O=c1oc(-c2ccc(Br)o2)nc2ccccc12	10%	-3.0%	-5%	-5%	14%	52%[activator]	0%	0%
Cc1ccc(C)c(CN2C(=O)c3ccccc3Sc3ccc(C(=O)NCc4cccs4)cc32)c1	·	0.0%	·	-11%[46.1 µM]	·	-4%	·	?
CN(CCOc1ccc(Cl)cc1)c1ccc(S(=O)(=O)N2CCCCC2)cn1	?	-1.3%	2%	?	-6%	-24%	-2%	1%
CCc1ccccc1NC(=O)NNS(=O)(=O)c1cc(C)ccc1C	5%[46.1 µM]	·	-1%	25%[46.1 µM]	-12%	45%[activator]	-1%	·
CN(Cc1ccccc1)C(=O)CC(=O)N(C)Cc1ccccc1	?	·	5%	1%[46.1 µM]	0%	17%	22%	·
Cc1nn(CC(=O)Nc2cccc(Cl)c2)c(=O)c2cc(-c3ccccc3)nn12	·	·	-2%	·	22%	-11%	-1%	·
CCOc1cccc(CC(=O)N2CCc3c([nH]c4ccc(OC)cc34)C2c2ccc(F)cc2)c1OCC (stereo not drawn)	6%[46.1 µM]	4.7%	·	?	·	-13%	·	-11%
O=S(=O)(c1ccc(Cl)cc1)N1CCN(c2ncnc3sccc23)CC1	?	·	·	?	5%	14µM*	2%	·
COc1cccc(NC(=O)c2cccc3c(=O)c4c([nH]c23)CCCC4)c1	6%[46.1 µM]	-4.7%	·	11%[46.1 µM]	·	-19%	·	17%
N/C(=N\OC(=O)Cc1ccc(Cl)cc1)c1ccncc1	?	·	-11%	13%	3%	7%	-1%	·
Cc1ccc(C2(O)CN3CCC2CC3)cc1 (stereo not drawn)	·	·	5%	·	-2%	-25%	-1%	·
COc1ccc(CSc2nncn2C)cc1F	4%	·	3%	2%	12%	0%	1%	·
Cc1ccc2c(c1)C(=O)CCN2	-10%	-1.3%	0%	-8%	-21%	·	10%	2%
CCC1=[N+]([O-])C(C)(/C(C)=N\O)N(O)C1(C)C (stereo not drawn)	2%	3.6%	0%	0%	25%	-9%	-14%	-7%
CC(=O)Nc1ccc(S(C)(=O)=O)c(C)c1	?	-0.7%	25%	-3%	1%	-7%	-12%	-6%
Cc1cc(Cl)cc(Br)c1OCCCNCC(C)O (stereo not drawn)	?	·	1%	-6%[46.1 µM]	-12%	-21%	-1%	·
CCc1ccccc1NNC(=O)c1cc(C)on1	·	·	-2%	·	2%	0%	-2%	·
CCc1cc(-c2n[nH]c(C)c2-c2nc3ccccc3s2)c(O)cc1OCC(=O)NN	18%[46.1 µM]	·	·	7%	-23%	-7%	2%	·
CC(C)S(=O)(=O)c1oc(-c2cccs2)nc1S(=O)(=O)c1ccc(F)cc1	?	-10%	·	?	·	22µM*	·	-2%
Cc1c(O)ccc(C(=O)CN2CCN(c3ccc(F)cc3)CC2)c1O	·	·	-3%	·	11%	?	6%	·
COc1ccccc1N(C(=O)c1ccco1)C(C(=O)NC1CCCC1)c1cccs1 (stereo not drawn)	-5%[46.1 µM]	·	1%	-29%	-14%	9%	-1%	·
O=Cc1cc(CCC(=O)O)ccc1O	·	·	-12%	·	49%	-24%	8%	·
CCC(CO)NC(=O)c1ccc(-c2nn(C)c(=O)c3ccccc23)cc1 (stereo not drawn)	-20%	3.2%	5%	2%	-6%[3.69 µM]	2%	3%	7%
CC(C)C[C@H]1CN=C(Nc2ccccc2)N1CCCCc1ccccc1	·	·	-15%	·	-6%	?	-1%	·
CC(/C=C/c1ccco1)=N/NC(=O)Cc1cccs1	13%	-12%	18%	2%	-24%	41%[activator]	?	-8%
Cc1ccc(NC(=O)CN2CCCN(Cc3ccccc3Cl)S2(=O)=O)c(C)c1	·	-7.5%	·	5%[46.1 µM]	·	2%	·	10%
Cc1ccc(SCC(=O)NC2CCS(=O)(=O)C2)cc1C (stereo not drawn)	9%	·	·	1%	1%	-11%	27%	·
Cc1nc2cc(C(=O)O)ccc2n1-c1ccc(F)cc1F	-5%	-0.2%	-3%	10%	19%	0%	-3%	-5%
CCOc1ccccc1N=Cc1c(O)n(C)c(=O)n(C)c1=O	·	·	-3%	·	-9%	-11%	2%	·
CCCOc1ccc(C(=O)NCC(c2ccc(OC)cc2)N2CCCCC2)cc1 (stereo not drawn)	?	0.7%	·	-30%[46.1 µM]	·	-9%	·	-3%
O=C(CNS(=O)(=O)c1ccc(F)cc1)Nc1ccccc1	·	·	6%	·	12%	-4%	-4%	·

The listing continues:
structure	MARV entry inh	Cruzain Triton	NS1 function inh	Lassa entry inh	RE007 growth inh	StopGo reporter	SARS PLpro yeast	Cruzain noTriton
CCc1ccc(NC(=O)c2sccc2-n2cccc2)cc1	4%	-7.2%	-55%	7%	-19%	19%	-22%	-2%
O=C(c1ccccc1)N1CCN(S(=O)(=O)c2cccs2)CC1	·	·	3%	·	3%	-16%	-1%	·
COCP(=O)(c1ccccc1)c1ccccc1	6%	8.7%	10%	6%	-2%	·	8%	19%
CC1=C(C(=O)Nc2ccccc2C(=O)N2CCCCC2)SCCO1	·	·	-3%	·	0%	0%	3%	·
O=C(NCc1nc2ccccc2[nH]1)c1ccc(Cl)c(S(=O)(=O)N2CCCC2)c1	-4%&-4%	-0.8%	?	-19%	-16%	28%	-1%	-14%
O=c1c(-c2ccc(Br)cc2)[n+]([O-])c2ccccc2n1OCc1ccccc1	·	·	-3%	·	6%	-4%	2%	·
Cc1ccc(NC(=O)CSc2nncn2C)c(C)c1	-11%[46.1 µM]	-0.3%	·	6%[46.1 µM]	·	-16%	·	-6%
CCn1c(C)c(CCC(=O)O)c(=O)n2nc(-c3ccccc3OC)cc12	5%	-5.7%	7%	5%	-16%	-10%	3%	-14%
CCS(=O)(=O)c1ccc(N=Nc2ccc(O)c3ncccc23)c(OC)c1	?	·	·	?	?	?	16%	·
COc1ccc(N2CCN(c3nc4c(C)cccn4c(=O)c3C=C(C#N)C#N)CC2)cc1	2%[46.1 µM]	·	0%	-1%[46.1 µM]	2%	-17%	2%	·
N/C(=N\N=C\c1ccc(O)cc1O)N[N+](=O)[O-]	-2%	-7.8%	-15%	12%	-3%	-23%	11%	-22%
